Assay outcomes as filed in PubChem.
Bead autofluor: flagged as autofluorescent in microsphere protease counterscreen. AID 624483. 360,000 tested, 3.1% active. compound autofluorescence counterscreen, microsphere flow cytometry; stronger effect = higher value. fluorescence intensity (no concentration beside the values);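 active = at least 3 SD above the mean of all compounds, about 16000 in these data; inconclusive = too few beads counted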;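 note: 100 nL of 1 mM stock went into each well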
RN4220 kill: kills Staphylococcus aureus RN4220; inhibition, % (concentration not given with the values); 330,000 tested, 0.33% active; AID 1259311; S. aureus RN4220 growth, OD600, 16 h;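 active = z-score of -3 or lower and OD600 up to 0.18 on both plates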;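 note: plate controls were untreated cells for no effect and reference antibiotic for full effect; stock transfer was 100 nL into about 80 µL; one replicate is shown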
PrP 5UTR inh: inhibition of PrP 5' UTR reporter expression; cell-based PrP 5' UTR mRNA reporter, plate reader; inhibition, % (test concentration not listed); 340,000 tested, 0.35% active;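 active = every replicate at 50% or more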;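 note: 0 = median of the neutral control wells; tested in H4 reporter cells; numbers are from one replicate; inactives centre near -14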
Mtb hypoxia inh: inhibitors of hypoxia-regulated fluorescent reporter in Mycobacterium tuberculosis. 300,000 tested, 0.1% active. M. tuberculosis hypoxia-regulated fluorescent reporter, fluorescence. AID 1159583. fluorescence inhibition, % (no concentration beside the values);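 active = 35 to 45% if threefold the growth effect, above 45% if 1.5-fold the growth effect; inactive = the rest, general growth blockers included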;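 note: wells of about 50 µL received 100 nL stock; 0% = vehicle wells and 100% = reference inhibitor wells; whole bacteria with a GFP reporter of the hypoxia response; strong numbers were not always called active; many hits fall short of the cut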
BJeLR viability: BJeLR cell viability loss; BJeLR (HRASV12) viability, CellTiter-Glo ATP luminescence, 48 h; reference of the scale not given here; inhibition, % (no concentration beside the values); 300,000 tested, 0.17% active; AID 1554;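 active = replicate mean above 50%; inconclusive = above 50% but judged a plate artefact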;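 note: 50 nL library stock added to about 25 µL; numbers are from one replicate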
Sa ugtP lethal: compounds lethal to S. aureus RN4220 ugtP deletion mutant; growth inhibition, % (test concentration not listed); OD600 growth, 16 h; some inactives read as strong as hits; 330,000 tested, 0.54% active;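 active = z-score under -3 and OD600 up to 0.15 on both plates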;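 note: plate controls were untreated wells for no effect and antibiotic for full effect; wells of about 80 µL received 100 nL stock; the first replicate is given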
Mtb hypoxia inh growth: second read-out of Mtb hypoxia inh, no call of its own (marks repeat the call); growth inhibition, %; measured here: M. tuberculosis growth (absorbance);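 0% = vehicle and 100% = reference antibiotic; read after six days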
* = called active by the depositor; ? = inconclusive; . = no result given.

SMILES	Bead autofluor	RN4220 kill	PrP 5UTR inh	Mtb hypoxia inh	Mtb hypoxia inh growth	BJeLR viability	Sa ugtP lethal
CCCS(=O)(=O)c1c(S(=O)(=O)CCC)c2c(C)cccn2c1C(=O)OC	8485	-2.4	-18	1	3	-3	0
N#C/C(=C1/CCCCCN1)c1nnc2n1CCCCC2	9580	8.8	-23	3	0	-7	7
Cc1c(NC(=O)c2ccc(S(=O)(=O)N3CCOCC3)cc2)cccc1[N+](=O)[O-]	?	1.2	-12	2	-1	-6	3
Cc1ccc(C(=O)COc2ncnc3cc(Cl)ccc23)cc1	.	6.4	.	-8	2	-4	7
COc1ccc(OCCCC(=O)Nc2cc(Cl)ccc2-n2cncn2)cc1	17700*	3.7	-13	10	4	-1	3
COc1cc(/C=N/NC(=O)c2cccnc2)cc2c1OCO2	6052	.	-31	.	.	-1	.
Cc1ccc(C)c(NC(=S)N2CCN(c3ccccn3)CC2)c1	4349	1.5	-16	12	1	3	4
CCC(=O)c1ccc(OCC(=O)OCC(=O)N2c3ccccc3NC(=O)C2(C)C)cc1	?	2.0	-14	-2	10	0	1
Cc1ccc(NC(=S)N2CCN(S(=O)(=O)c3ccc(F)cc3)CC2)cc1	4754	1.4	-7	13	4	1	9
NS(=O)(=O)c1ccc(CNC(=O)/C=C/c2cccc(Cl)c2)cc1	2554	3.4	-116	6	5	7	1
COc1cc(Cl)c(C)cc1NC(=O)CSC	4631	1.5	-15	.	.	6	-2
CC(C)(C)C=NNC(=O)CNC(=O)c1ccc2c(c1)OCCO2	.	1.6	.	10	-1	.	6
CC(NS(=O)(=O)c1ccc(Cl)cc1)C(=O)OCC(=O)c1ccc[nH]1 (stereo not drawn)	3811	3.4	-3	-4	2	.	1
CCOC(=O)C1(Cc2ccc(OC)cc2)CCN(C(=O)c2ccoc2C)CC1	4334	3.9	-26	16	2	2	7
CC(OC(=O)c1cc(=O)[nH]c2ccccc12)C(=O)c1ccccc1 (stereo not drawn)	4624	.	1	.	.	10	.
O=C1COc2ccc(C(=O)/C=C/c3ccccc3)cc2N1	6892	4.3	-21	5	0	18	-11
CCC(=NCc1ccc(Cl)c(Cl)c1)c1nc(-c2ccco2)oc1O	2147	.	-3	.	.	-14	.
COC(=O)CCCC1=CC2=C(c3ccccc3)C(=O)C(C)(OC(=O)C3CCCC3)C(=O)C2=CN1CCc1c[nH]c2ccccc12 (stereo not drawn)	3582	5.6	-16	4	5	2	-5
C#CCOCCOCCOCCNc1nc(N2CCOCC2)nc(N2CCN(C(=O)[C@H](CCC(=O)O)n3cc(C(N)[C@H](C)CC)nn3)CC2)n1 (stereo partly drawn)	4265	.	-29	.	.	-2	.
COc1cc(SC)ccc1C(=O)Nc1ccc(Cl)cn1	4283	11	60*	11	10	-4	44
CC(=O)N1CC(=O)N(CC(=O)Nc2ccc(Br)cc2)C1=S	5446	2.5	-8	-2	-3	7	4
O=C(CC1CCCCC1)NCCS(=O)(=O)N1CCN(c2ccccc2)CC1	5894	0.7	-3	1	-1	-7	1
CCOC(=O)N1CCN(CCC(=O)Nc2ccc(F)c(F)c2)CC1	3391	5.5	-4	13	13	-1	5
O=C(c1cc(-c2ccc3c(c2)OCO3)on1)N1CCOCC1	23477*	6.2	-25	4	2	-6	13
C=CCn1c(C)cc(C(=O)COC(=O)C2CC(=O)N(CCc3ccc(OC)c(OC)c3)C2)c1C (stereo not drawn)	?	.	-10	.	.	-1	.

A few values from the list.
Reading for CCC(=O)c1ccc(OCC(=O)OCC(=O)N2c3ccccc3NC(=O)C2(C)C)cc1 under Sa ugtP lethal: 1
Reading for CCOC(=O)C1(Cc2ccc(OC)cc2)CCN(C(=O)c2ccoc2C)CC1 under RN4220 kill: 3.9
Reading for CC(C)(C)C=NNC(=O)CNC(=O)c1ccc2c(c1)OCCO2 under RN4220 kill: 1.6
Reading for Cc1ccc(C)c(NC(=S)N2CCN(c3ccccn3)CC2)c1 under Bead autofluor: 4349

(further entries)
SMILES	Bead autofluor	RN4220 kill	PrP 5UTR inh	Mtb hypoxia inh	Mtb hypoxia inh growth	BJeLR viability	Sa ugtP lethal
Cc1cc(C(=O)OCC(=O)NCCc2ccccc2)c(C)o1	2423	2.7	-2	5	10	11	0
CC(=O)c1c(O)cc(=O)n(-c2ccccc2)c1-c1cccc2ccccc12	3733	5.4	-5	.	.	0	-13
CC(=O)Nc1ccc(S(=O)(=O)NC2(C(F)(F)F)NC(=O)N(C3CCCCC3)C2=O)cc1 (stereo not drawn)	23390*	4.2	-4	14	2	-3	-4
Cc1c(Cl)cccc1-c1ccc(C(=O)N2CCN(c3ccc([N+](=O)[O-])cc3)CC2)o1	.	13	-7	-6	12	1	-7
CC(=O)OC(C(=O)NC1CCCCC1)c1ccc(C)cc1 (stereo not drawn)	3626	-1.0	-16	.	.	6	0
CC(CC(=O)Nc1cccc(Cl)c1)c1ccccc1 (stereo not drawn)	2103	2.0	-8	1	1	6	-3
COc1ccccc1-n1cnc2c(c1=O)c1nc3ccccc3nc1n2-c1ccc(C)cc1	2097	-4.4	-14	-17	5	4	53
COc1ccc(C(c2nnnn2Cc2ccccc2)N2CCN(c3nc4ccccc4s3)CC2)cc1OC (stereo not drawn)	3315	-1.7	-19	.	.	-1	5
COc1cc(C=NN=C(N)c2nonc2N)cc(OC)c1OC	.	5.9	.	7	9	.	6
Cc1cc(N2Cc3ccccc3C2)ccc1C=O	3303	17	-13	11	5	-8	-1
Cc1ccc(NC(=O)CCC(=O)NNS(=O)(=O)c2ccccc2)cc1C	2153	3.3	-18	8	5	0	7
COC(=O)C1=C(c2ccc(S(C)(=O)=O)cc2)C[C@@H]2CC[C@H]1N2C(=O)NCCCOC(C)C	4337	.	-20	.	.	-6	.
CCCOc1ccc(/C(O)=C2\C(=O)C(=O)N(CCCOC)C23C(=O)N(C)c2ccccc23)cc1 (stereo not drawn)	2855	-7.3	-30	10	11	6	-7
CCOC(=O)c1[nH]c2c(c1-c1ccccc1)C(=O)CC(c1ccc(OCC)cc1)C2 (stereo not drawn)	4037	7.3	-4	.	.	-7	18
CC1CCCC(NC(=O)C2N(CCCN3CCCC3)C(=O)C3C(C(=O)Nc4cccc(Cl)c4)C4C=CC32O4)C1C (stereo not drawn)	3633	2.9	-24	4	3	1	0
Cc1ccc(-c2ccc(CCC(=O)O)n2NC(N)=S)cc1	1978	-4.6	3	-2	-3	13	-3
COc1ccc(OC)c(/C=N/n2c(COc3ccccc3)n[nH]c2=S)c1	3061	.	-23	.	.	2	.
CN(CCO)Cc1csc2ccc(Br)cc12	4735	2.3	-12	.	.	13	-5
COc1ccc(C(=O)O)c(OC)n1	4545	-0.4	-15	8	-6	4	-4
Cc1cccc(C)c1NC(=O)NC1(C(=O)NCCCN2CCOCC2)CCCCC1	3134	-5.1	-26	20	4	-1	4
CCOc1ccccc1N(CC(=O)Nc1ccccc1)S(=O)(=O)c1ccccc1	3354	1.2	-10	1	0	1	4
O=C(O)Cc1ccc(NS(=O)(=O)c2ccc3ccccc3c2)cc1	3015	0.6	-3	1	-13	3	9
COc1ccc(C)cc1S(=O)(=O)N(CC(=O)N1CCCC1)c1ccccc1	9739	6.4	-31	19	1	-7	-2
O=C(NC1CSC/C1=N\O)c1ccccc1 (stereo not drawn)	9264	.	-35	.	.	-5	.
CC1(C)c2[nH]c3ccccc3c2C[C@H]2C(=O)N(CCCCCO)CC(=O)N21	4005	-0.1	-19	7	1	-2	1

Exported with each value named: part of the list above.
CC(=O)c1c(O)cc(=O)n(-c2ccccc2)c1-c1cccc2ccccc12
  Bead autofluor = 3733 | RN4220 kill = 5.4 | PrP 5UTR inh = -5 | Mtb hypoxia inh = . | Mtb hypoxia inh growth = . | BJeLR viability = 0 | Sa ugtP lethal = -13
CC(=O)Nc1ccc(S(=O)(=O)NC2(C(F)(F)F)NC(=O)N(C3CCCCC3)C2=O)cc1 (stereo not drawn)
  Bead autofluor = 23390* | RN4220 kill = 4.2 | PrP 5UTR inh = -4 | Mtb hypoxia inh = 14 | Mtb hypoxia inh growth = 2 | BJeLR viability = -3 | Sa ugtP lethal = -4
Cc1c(Cl)cccc1-c1ccc(C(=O)N2CCN(c3ccc([N+](=O)[O-])cc3)CC2)o1
  Bead autofluor = . | RN4220 kill = 13 | PrP 5UTR inh = -7 | Mtb hypoxia inh = -6 | Mtb hypoxia inh growth = 12 | BJeLR viability = 1 | Sa ugtP lethal = -7

Compound profiles (already shown).
NS(=O)(=O)c1ccc(CNC(=O)/C=C/c2cccc(Cl)c2)cc1 in the list: Bead autofluor = 2554; RN4220 kill = 3.4; PrP 5UTR inh = -116; Mtb hypoxia inh = 6; Mtb hypoxia inh growth = 5; BJeLR viability = 7; Sa ugtP lethal = 1
Cc1ccc(C(=O)COc2ncnc3cc(Cl)ccc23)cc1 in the list: Bead autofluor = .; RN4220 kill = 6.4; PrP 5UTR inh = .; Mtb hypoxia inh = -8; Mtb hypoxia inh growth = 2; BJeLR viability = -4; Sa ugtP lethal = 7

Following part
SMILES	Bead autofluor	RN4220 kill	PrP 5UTR inh	Mtb hypoxia inh	Mtb hypoxia inh growth	BJeLR viability	Sa ugtP lethal
COc1ccc(S(=O)(=O)N2CCOCC2)cc1NC(=O)Cc1ccc(Cl)c(Cl)c1	2600	1.3	-11	4	-2	-2	-3
CN(Cc1ccccc1O)CC1CCCN(CCc2ccc(Cl)cc2)C1 (stereo not drawn)	.	0.7	-12	16	12	-7	16
CCOC(=O)c1c(-c2cccs2)csc1NC(=O)CSc1ncn[nH]1	11112	3.4	-13	4	11	0	7
CCCCCCCC(=O)NN=C1CCN(Cc2ccccc2)CC1	2210	-3.6	-15	-6	8	-3	0
O=C(O)C1CC=CCC1C(=O)Nc1cccc(C(=O)N2CCCCC2)c1 (stereo not drawn)	9825	5.2	-24	8	6	-3	1
CCOC(=O)C(NC(=O)N(C)C)(Nc1sc(C)c(CC)c1C#N)C(F)(F)F (stereo not drawn)	9183	66	-3	5	-4	10	28
CC1Cc2ccccc2N1Cc1cccc(S(=O)(=O)N(C)C)c1 (stereo not drawn)	3659	4.9	-4	1	9	-5	15
CCOC(=O)c1ccc(NC(=O)CCC(=O)NCc2ccco2)cc1	3451	3.8	-20	2	18	-3	5
COC(=O)c1ccccc1NC(=O)Nc1ccc(Cl)cn1	4414	3.1	-5	10	6	-3	8
Cc1sc2nc(SCC(N)=O)n(-c3ccccc3)c(=O)c2c1C	4282	3.4	-82	2	1	2	5
Cc1c(Cl)c([N+](=O)[O-])nn1CC(=O)NCC(C)C	3370	6.0	-7	6	2	0	-2
COc1ccc(-n2cnnc2SCC(=O)Nc2cccc(S(N)(=O)=O)c2)cc1	5457	5.1	1	-5	-6	-5	0
CCCn1c(=O)c2ccccc2n2c(SCc3nnc(-c4ccccc4Br)o3)nnc12	8865	3.6	9	-7	2	-4	2
O=S(=O)(Nc1nc2ccccc2nc1Cl)c1ccccc1C(F)(F)F	3753	72	-13	6	1	-18	26
CCOC(=O)c1ccc(Nc2nc(C)cc(C)c2C#N)cc1	8402	3.1	-11	7	18	4	29
COc1ccc(CN(C)C(=O)CCc2ccc(S(=O)(=O)N3CCCCCC3)cc2)c(OC)c1	4020	-1.7	-67	4	-1	.	4
Cc1ccc(S(=O)(=O)N2CCOCC2)cc1NC(=O)COC(=O)c1ccc(Cl)nc1	.	5.6	.	6	-3	.	10
COC(=O)c1sc2ncn(CC(=O)NCCc3ccc(OC)c(OC)c3)c(=O)c2c1C	1983	-4.6	21	3	-4	-10	-4
CC(C)(C)N1CC23C=CC(C[C@@H]2C1=O)O3 (stereo partly drawn)	4091	.	-6	.	.	5	.
CC(=O)Nc1ccc(SCC(CC(C)C)N2CCN(CCc3ccccc3)CCC2=O)cc1 (stereo not drawn)	.	4.6	.	7	9	.	-9
O=C(Cn1c(=S)[nH]c2ncccc2c1=O)NCCc1ccccc1	.	9.4	.	-7	0	-1	3
CCc1cc(C(=O)N(C)CC(=O)N(CC(C)C)c2c(N)n(CC(C)C)c(=O)[nH]c2=O)sc1C	5697	1.5	-4	-6	-6	3	1
COc1cc(Nc2nc3ccccc3n3nnnc23)cc(OC)c1OC	4578	9.3	-31	4	6	-9	4
CC1CCCN(C(=O)c2ccc(CNc3c(N4CCCCC4)c(=O)c3=O)cc2)C1 (stereo not drawn)	5291	2.3	-24	.	.	2	9
CC(=O)Oc1ccc(C=NNC(=O)c2ccc(N(C)S(=O)(=O)c3ccccc3)cc2)cc1	.	3.0	.	-10	-3	.	5
CCN(CC)C(=O)C1CCCN(Cc2ccc3ccccc3c2)C1 (stereo not drawn)	3822	3.7	-13	-1	0	14	8

Rows are unselected, and some 4% of all compounds hit somewhere here.
